# Anthrax LT inh: inhibitors of anthrax lethal toxin internalization | Cells, anthrax lethal toxin internalization, FRET ratio (460/530) | Potency, µM (doses to about 40 µM), for inactives: at the highest dose activity change, negative = inhibition, usual class: inhibitors | 70,000 tested, 0.67% active | AID 912; active = well fitted falling ratio curve with the 530 nm signal flat; inconclusive = other ratio curves, or a change in one channel alone; inactive = flat curves in the ratio and both channels; the % refers to the ratio; further: on the % scale 0 is the no-effect control and ±100 the full control effect; nearly all actives have a fitted effect of over 50% in size; tested in ME-180 cells; beta-lactamase reporter
# SmPrx2 inh: Schistosoma mansoni Prx2 inhibition. AID 448. 65,000 tested, 0.07% active. Potency, µM. S. mansoni Prx2 activity coupled to TGR/GSH (TGR is thioredoxin glutathione reductase), NADPH fluorescence loss, qHTS; some inactives read as strong as hits; active means full or partial inhibition curve with a strong effect at the top dose; inconclusive means weaker partial or single-point curve; inactive means no accepted curve; further: series up to 57 µM; many of its hits are not listed in these tables
#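 qHTS, coupled TGR/Prx2 format; 15 min compound preincubation at RT; reaction started with H2O2 (2.5 mM aliquot); kinetic NADPH fluorescence decrease, ex 365/em 450 nm.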
# Numbers without * were called inactive; ? = inconclusive; / = not tested or not shown; [ ] = remark or other dose. Potency means the concentration at half of the fitted maximal effect.
SMILES,Anthrax LT inh,SmPrx2 inh
COc1ccccc1OCCCCCNCCO,-17.7%,>57
COc1ccc(S(=O)(=O)Cc2ccc(C(=O)N3CCN(c4cccc(C)c4C)CC3)o2)cc1,?,>57
c1ccc(CNc2ccnc(-c3cccnc3)n2)cc1,?,>57
CC(NC(=O)C1CCCN(S(=O)(=O)c2cccs2)C1)c1ccccc1 (configuration not stated),?,>57
COCCN(C(=O)Nc1ccccc1)C(C)c1cccnc1 (configuration not stated),3.4%,>57
Cc1ccc(N2CC(C(=O)OCc3ccccc3)CC2=O)cc1 (configuration not stated),-3.1%,/
CCc1nc(C)cn1S(=O)(=O)c1cc(Br)c(C)cc1OC,-11.6%,>57
N#CCCN1CCN(S(=O)(=O)c2ccc(S(=O)(=O)N3CCCCCC3)cc2)CC1,-4.8%,>57
COc1ccc(S(=O)(=O)N2CCN(CCO)CC2)cc1-c1nnc2c3ccccc3c(C)nn12,7.0%,>57
Cc1cc(C)nc(N2CCC(C(=O)Nc3nnc(C)s3)CC2)n1,9.5%,>57
COC(=O)C1=CNC=C(C(=O)OC)C1c1ccc(C(=O)OC)cc1,?,/
COc1ccc(CNC(=O)c2ccccc2SC)cc1,-6.9%,>57
Cc1ccc(S(=O)(=O)NC(=O)NC(C)(C)C)cc1,3.0%,/
Clc1cccc(CSc2nnc([C@@H]3CCCN3)o2)c1,2.1%,>57
COC(=O)c1cc(CSc2nnc(-c3ccccc3)c(-c3ccccc3)n2)oc1C,?,>57
CCCS(=O)(=O)N1CCN(Cc2ccncc2)CC1,-0.6%,>57
O=C(C1CCCCC1)N1CCC(n2nnc3ccccc32)CC1,-13.4%,>57
COc1ccccc1-c1nnc(SCC(=O)N2CCOCC2)o1,-6.1%,>57
O=C(COC(=O)c1ccccc1S(=O)(=O)N1CCCCC1)NCC(F)(F)F,16.4%,>57
O=C(NCc1cccnc1)c1ccccc1Br,-1.7%,>57
O=C(CSc1ncnc2c1oc1ccccc12)Nc1ccc2c(c1)OCCO2,/,>57
Cc1c(NC(=O)OCCNC(=O)Nc2ccccc2)sc(=S)n1C,3.3%,>57
CCCCC(CC)CNC(=O)C1CCCN(S(=O)(=O)c2cnc[nH]2)C1 (configuration not stated),7.0%,>57
COc1ccc(NC(=O)CN(c2ccc(C(C)C)cc2)S(=O)(=O)c2c(C)noc2C)cc1OC,-22.4%,>57
Cc1cc(NC(=O)CSc2nc3c(c(=O)n2-c2ccc(Br)cc2)SCC3)no1,-23.6%,>57
O=C(OCC(CO)OC(CO)n1ccc(=O)[nH]c1=O)c1ccccc1 (configuration not stated),11.6%,>57
O=C(CSc1nc2cc(Cl)ccc2o1)c1cccs1,-20.4%,>57
O=C(CCN1C(=O)c2ccccc2C1=O)N1CCC(c2ccccc2)C1 (configuration not stated),?,>57
CS(=O)(=O)N(Cc1ccccc1)c1ccccc1C(=O)O,5.2%,>57
O=C(Nc1ccc(Br)cc1F)C1CCCN(S(=O)(=O)c2cnc[nH]2)C1 (configuration not stated),-2.5%,>57
Cc1ccc(CNC(=O)CS(=O)Cc2nc(-c3cccs3)oc2C)cc1 (configuration not stated),-3.8%,>57
Cc1ccccc1OCCCC(=O)Nc1ccc(N2CCOCC2)cc1,5.4%,>57
O=C1CCCc2nn(-c3ccccc3)c(-c3ccncc3)c21,?,>57
COc1ccc(C(=O)NCCCn2ccnc2)cc1,4.4%,>57
O=C(Nc1ccccc1)N1CCC2(CC1)CCN(C(=O)c1csnn1)CC2,?,>57
CCCc1nnc(NC(=O)c2c(O)c3cccc4c3n(c2=O)CC4)s1,20.4%,>57
CCOC(=O)c1[nH]c2ccccc2c1NC(=O)c1cc(OC)c(OC)c(OC)c1,0.1%,>57
COc1cc(C(c2sc3ncnn3c2O)N2CCN(c3ccccc3F)CC2)cc(OC)c1OC (configuration not stated),7.1%,>57
C=CCN1C(=O)CS/C1=C(\C#N)S(=O)(=O)c1ccc(C)cc1,?,>57
CCOc1ccc(-c2nc(CSCC(=O)NCCN3CCOCC3)c(C)o2)cc1,1.6%,>57
Cc1ccc(C(=O)N2CCCC(c3nc4c(nnn4Cc4ccccc4)c(=O)[nH]3)C2)cc1 (configuration not stated),?,>57
CSc1cccc(-n2cc(-c3ccc4c(c3)OCO4)[nH]c2=O)c1,-7.0%,>57
COC(=O)[C@@H]1CC[C@H](C)[C@@H](c2ccc(C)cc2)N1C(=O)c1ccc(/C=N\OC[C@@H]2O[C@H](c3ccccc3)C=C[C@@H]2Oc2ccc(OC)cc2)cc1,-2.7%[8 µM],/
Cc1nc(NCCN2CCOCC2)c2nnn(Cc3c(F)cccc3Cl)c2n1,?,>57
CCOC(=O)c1cn(CC)c2cc(N3CCCCC3)c(F)cc2c1=O,?,>57
CC(C)(CNCC(O)c1ccccc1)N1CCOCC1 (configuration not stated),-8.2%,>57
Cc1cccc(N2CCN(C(=O)C34CC5CC(CC(C5)C3)C4)CC2)c1C,-4.0%,>57
Cc1cc(C)nc(SCC2COc3ccccc3O2)n1 (configuration not stated),-22.9%,>57
CCc1cc2c(nc1CC)CCN(CC/C(C)=N/O[C@@H](C)CN1CCCc3nc(C)c(C)cc31)C2,1.8%[1.6 µM],/
O=C(Nc1ccccc1C1CC1)c1cccs1,0.4%,/
O=C(Nc1ccc2c(c1)OCO2)C1CCN(S(=O)(=O)Cc2ccccc2)CC1,-0.6%,>57
CC(=O)Nc1cccc(O)c1,3.8%,/
COc1cccc(C(=O)Nc2c(C)n[nH]c2C)c1,-1.6%,>57
O=C(O)c1ccccc1-c1ccccc1C(=O)NCc1ccco1,2.5%,>57
CN(C)S(=O)(=O)c1ccc(C(=O)Nc2ccc(Cl)cc2)cc1,?,>57
ICCc1ccccc1,22.9%,/
C=CCOc1ccccc1OC[C@H](O)CNC(C)C,-11.1%[3.58 µM],>57
N[C@H]1[C@@H](C(=O)O)[C@H]2C=C[C@H]1C2,-7.6%[8 µM],>57
CC[N+](C)(CC)CCOC(=O)C1c2ccccc2Oc2ccccc21,5.4%[3.58 µM],>57
Cc1cc2nc(C3CCN(Cc4nnnn4Cc4cccs4)CC3)[nH]c2cc1C,0.4%,>57

# Filtered by structure, the entries above containing a COOH group
SMILES,Anthrax LT inh,SmPrx2 inh
CS(=O)(=O)N(Cc1ccccc1)c1ccccc1C(=O)O,5.2%,>57
O=C(O)c1ccccc1-c1ccccc1C(=O)NCc1ccco1,2.5%,>57
N[C@H]1[C@@H](C(=O)O)[C@H]2C=C[C@H]1C2,-7.6%[8 µM],>57

# Single records, as listed above.
# Results for COc1ccccc1OCCCCCNCCO → Anthrax LT inh = -17.7%; SmPrx2 inh = >57
# Results for O=C(Nc1ccccc1C1CC1)c1cccs1 → Anthrax LT inh = 0.4%; SmPrx2 inh = /

# Next compounds.
SMILES,Anthrax LT inh,SmPrx2 inh
COc1ccccc1CNc1nc(-c2ccccc2OC)nc2ccccc12,?,>57
CC1(C)CC(=O)C(C=Nc2ccc3cn[nH]c3c2)=C(O)C1,0.3%,/
CC1CCc2c(sc3c2C2=NS(=O)(=O)CCN2C=N3)C1 (configuration not stated),7.2%,>57
COc1ccc(OC)c(C2CC(=O)N3CN(c4ccccc4F)CSC3=C2C#N)c1 (configuration not stated),-7.0%,>57
Nc1ccccc1C(=O)OC1CSC1,-2.7%,/
CCOC(=O)C1=C(C)NC(C)=C(C(=O)OCC)C1C(=O)O,11.8%,/
O=C(Nc1ccccc1F)C1CCCN(S(=O)(=O)c2cccc3cccnc23)C1 (configuration not stated),-22.4%,>57
CC(=O)Nc1ccc(C2C(C)CCC3C(=O)N4C(CCC(C)[C@@H]4c4ccc(NC(C)=O)cc4)C(=O)N32)cc1 (some centres not stated),-8.2%[8 µM],/
Cc1cc(C)nc(SCC(=O)c2cc3ccccc3oc2=O)n1,-7.2%,>57
Cc1cc(S(=O)(=O)N2CCOCC2)ccc1F,-23.0%,>57
O=C(O)C1CC=C(Cl)CC1C(=O)NCC1OCCc2ccccc21 (configuration not stated),1.2%,>57
COCCn1c(Sc2ccccc2)nc2c1c(=O)[nH]c(=O)n2C,-8.3%,>57
CCOC(=O)c1oc2ccccc2c1CN1CCN(C(=O)c2ccccc2)CC1,18.6%,>57
CC(=O)c1c(C)[nH]c(C(=O)CSc2nnc(CN3CCCCCC3=O)n2-c2ccccn2)c1C,0.3%,>57
C[N+]1([C@H](CO)Cc2c[nH]c3ccccc23)Cc2ccccc2C1,-1.4%[8 µM],>57
CC1(C)Cc2ccccc2C(=O)N1,/,>57
CC(NC(=O)Cn1nc(C(=O)O)c2ccccc2c1=O)c1ccccc1 (configuration not stated),2.9%,>57
c1ccc(CSc2nnc(-c3ccco3)n2Cc2ccco2)cc1,-12.1%,>57
COCCSc1nnc(NC(=O)COC)s1,-21.8%,>57
O=C(c1cnccn1)N1CCC2(CCCN(c3ccc(-c4ccccc4)cc3)C2)CC1,-6.0%,>57
O=C(CSc1nc2ccccc2n1CC(=O)NCc1ccccc1)NCc1ccco1,-5.5%,>57
Brc1ccccc1-c1nnc(CSc2nnc3sc4ccccc4n23)o1,5.3%,>57
CCOc1ccc(NC(=O)CSc2nccn2C)cc1,-9.8%,>57
CN(C)C(=O)c1ccc(-c2nc(N(C)Cc3ccco3)c3ccccc3n2)cc1,-27.8%,>57
CN1CCN(CP(=O)(N2CCOCC2)N2CCOCC2)CC1,2.3%,>57
O=C(NCc1ccc2c(c1)OCO2)C1CCN(c2ncccn2)CC1,-12.8%,>57
O=C(NCC(=O)N(CC1CCCO1)C(C(=O)NC1CCCC1)c1ccc(F)cc1)c1ccco1 (configuration not stated),?,>57
CCCCCSc1nc2c(c(=O)[nH]c(=O)n2C)n1CC,-8.4%,>57
N#Cc1c(Nc2ccccc2)c(C=NCCN2CCOCC2)c[nH]c1=O,-13.9%,>57
COC(=O)C1=C(C)NC(C)=C(C(=O)OC)C1c1cn(-c2ccccc2)nc1-c1ccco1,-20.2%,>57
c1ccc(-c2cc(-c3nnc4sc(-c5ccccn5)nn34)[nH]n2)cc1,-26.8%,>57
O=C(NCc1ccccc1)c1cc(-c2cccs2)on1,16.1%,>57
Cc1nc2ccccn2c1-c1nnco1,-8.8%,>57
COc1ccccc1N1CCN(C(=O)CSc2nc(C)c(Cc3ccccc3)c(=O)[nH]2)CC1,?,>57
CC1(C)C(=O)C2(C(=O)NCc3ccccc3)CCC1C2 (configuration not stated),3.3%,>57
N=c1nc(N)nc2n1NC(c1ccc(F)cc1)=CS2,-10.3%,>57
CCOC(=O)c1cc2n(n1)C(C(F)(F)C(F)(F)F)CC(C)N2 (configuration not stated),-1.4%,>57
CCn1nc(C)c(/C=C2\CCCC3=C2OC(N)=C(C#N)C3c2c(C)nn(CC)c2C)c1C (configuration not stated),-2.7%,>57
CN(C)C(=O)c1ccc(-c2nc(NCc3cccs3)c3ccccc3n2)cc1,-16.9%,>57
COCCSc1nc2sc3c(c2c(=O)n1-c1ccccc1)CCN(C)C3,-5.8%,>57

# Taken from above.
# SmPrx2 inh, `CC1(C)C(=O)C2(C(=O)NCc3ccccc3)CCC1C2` (configuration not stated) : >57
# SmPrx2 inh, `CCCCCSc1nc2c(c(=O)[nH]c(=O)n2C)n1CC` : >57
# SmPrx2 inh, `O=C(NCc1ccc2c(c1)OCO2)C1CCN(c2ncccn2)CC1` : >57
# SmPrx2 inh, `N=c1nc(N)nc2n1NC(c1ccc(F)cc1)=CS2` : >57

# The list goes on.
SMILES,Anthrax LT inh,SmPrx2 inh
C=C(C)Cn1c(-c2ccccc2)nc2ccccc21,?,/
COc1ccc(S(=O)(=O)NCCSc2ccc(C)cc2)cc1OC,?,/
O=C(COC(=O)C1CCC1)Nc1ccc(OC(F)F)cc1,-11.0%,>57
CCN(c1ccccc1)S(=O)(=O)c1ccc(F)c(C(=O)O)c1,-14.0%,>57
CCC(C)C(NC(=O)c1ccccc1NC(=O)c1ccc(OC)cc1)C(=O)NCc1ccco1 (configuration not stated),3.5%,>57
COc1ccc(C2CC(=O)c3c(C)nc(N4CCN(Cc5ccccc5)CC4)nc3C2)cc1OC (configuration not stated),-14.5%,>57
Cc1ccc2[nH]c(=O)c(COC(=O)C3CCCO3)cc2c1 (configuration not stated),13.5%,>57
COc1cc(C)nc(Oc2ccc(OCc3ccccc3)nn2)n1,-7.0%,>57
COC(=O)C1=C(C)N2C(=O)CSC2=NC1c1ccc2c(c1)OCO2 (configuration not stated),21.0%,>57
CC(=O)CC1(O)C(=O)N(CN2CCN(c3ccccc3)CC2)c2ccccc21 (configuration not stated),-15.7%,/
CCN(CC)C(=O)CSc1nnc(-c2cc(OC)cc(OC)c2)o1,-6.6%,>57
COc1ccc(Cc2nnc(NC(=O)c3ccco3)s2)cc1OC,-2.0%,>57
CCC1CCCCN1C(=O)c1cc(-c2ccc(Cl)c(Cl)c2)on1 (configuration not stated),?,>57
Cc1nnc(SCC(=O)Nc2cccc(C(F)(F)F)c2)[nH]c1=O,?,>57
CCOc1ccccc1N1CCN(C(=O)c2cc3c(s2)CCC3)CC1,-0.9%,>57
O=C(OCCN1C(=O)c2ccccc2C1=O)c1cc(=O)[nH]c2ccccc12,10.3%,>57
COc1cc(NS(=O)(=O)c2ccc(Br)s2)cc(OC)c1,1.0%,>57
CCCc1[nH]nc2c1C1(CCN(C(=O)OCc3ccccc3)CC1)C(C#N)=C(N)O2,?,>57
CCCCCc1c(C)nc(N2CCOCC2)[nH]c1=O,7.9%,>57
Cc1cccc2cc(COC(=O)c3ccccc3)c(=O)[nH]c12,-11.2%,>57
Cc1cccc(CNc2ncnc3ccc(-c4ccccc4C#N)cc23)c1,-16.8%,>57

# Assay outcomes from PubChem.

# This is a subset. The share of hits here may be higher or lower than overall.
